T cruzi inh: blocks replication of Trypanosoma cruzi; T. cruzi beta-gal in NIH3T3, luminescence, 90 h; inhibition, % (test concentration not listed); 300,000 compounds, 1.4% hits;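 active = mean inhibition across valid replicates above about 55%, limit read from the data; inconclusive = mean below that limit but half or more replicates reach it; inactive = mean below it, under half of replicates reach it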;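 also: signal also drops with host cell toxicity which is not excluded here; 0% = plate median of DMSO wells and 100% = zero luminescence signal; higher percent means less beta-gal luminescence so fewer parasites; stock transfer was 50 nL into about 50 µL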
Calb FLC: C. albicans growth modulation with fluconazole | C. albicans CaCi-2 (fluconazole-resistant clinical isolate) + fluconazole, Alamar Blue growth, 48 h | growth inhibition, % (concentration not given with the values) | 300,000 compounds, 0.57% hits;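 active = most replicates above 75%; inconclusive = exactly half above 75%; inactive = most below 75%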;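 also: all wells also contain fluconazole at 8 µg/ml as a sub-toxic cotreatment; 0% = median of DMSO wells and 100% = median of geldanamycin control wells; wells of about 8 µL received 7.5 nL stock; the first replicate is given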
AF4-AF9 inh: blocks AF4 peptide binding to human AF9. AlphaScreen, biotin-AF4 peptide binding to FLAG-AF9. 350,000 compounds, 0.47% hits. P42568. inhibition, % at 10 µM. AID 651704;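 active = every replicate reaching a set inhibition limit, whatever the replicate mean, cut at about 25% in these data; inconclusive = mean inhibition reaches that limit but some replicates miss it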;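 also: 0% = plate neutral control median and 100% = total signal loss; the record names both 10 and 1 µM as test concentration; the first replicate is given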
Target sequence (P42568 whole entry, looked up): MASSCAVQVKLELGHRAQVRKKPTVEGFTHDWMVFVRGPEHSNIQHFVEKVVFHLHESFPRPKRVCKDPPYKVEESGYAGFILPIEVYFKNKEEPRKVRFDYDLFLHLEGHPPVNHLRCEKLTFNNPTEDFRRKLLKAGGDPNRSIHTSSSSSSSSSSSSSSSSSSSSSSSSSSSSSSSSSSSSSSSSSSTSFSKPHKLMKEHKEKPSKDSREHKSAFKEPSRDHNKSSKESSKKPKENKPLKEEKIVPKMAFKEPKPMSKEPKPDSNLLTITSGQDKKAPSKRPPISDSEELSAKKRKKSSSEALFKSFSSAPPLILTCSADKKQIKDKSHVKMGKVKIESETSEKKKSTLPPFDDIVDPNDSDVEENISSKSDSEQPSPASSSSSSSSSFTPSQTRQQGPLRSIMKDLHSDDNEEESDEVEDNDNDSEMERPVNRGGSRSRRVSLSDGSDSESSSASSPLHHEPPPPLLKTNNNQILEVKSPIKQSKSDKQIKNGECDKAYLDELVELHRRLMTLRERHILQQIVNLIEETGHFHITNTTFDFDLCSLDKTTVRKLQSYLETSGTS
RanGTP-Impb inh: disruptors of Ran-importin-beta complex formation – biochemical, FRET, CFP-Ran, YFP-importin-beta, homogeneous, primary screen; AID 2216; cell-free CFP-Ran/YFP-importin-beta FRET ratio; 300,000 compounds, 1.1% hits; inhibition, % (no concentration beside the values);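 active = most replicates above 15%; inconclusive = exactly half above 15%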;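 also: 0% = DMSO wells and 100% = Ran loaded with GDP instead of GTP; wells of about 40 µL received 100 nL stock; the first replicate is given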
A1 inh: inhibitors of the anti-apoptotic protein A1, read as caspase activation; MEF A1-2A-BIM cells, Caspase-Glo 3/7 luminescence, 3 h; percent of clofoctol response, vehicle zero; caspase activation, % (no concentration beside the values); 330,000 compounds, 0.066% hits; AID 2462;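 active = over half of replicate activation scores above 10%, or exactly half above 10 with the replicate mean above 10; inconclusive = replicate mean below 10 yet half the replicates above 10; inactive = over half of replicates below 10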;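 also: wells of about 30 µL received 50 nL stock; many hits fall short of the cut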
rRNA inh HTS: inhibitors of bacterial rRNA selective over humanized ribosomes; 350,000 compounds, 1.6% hits; GFP signal change (wild-type ribosome), % (test concentration not listed); E. coli WT GFP vs humanized-ribosome RFP mutants, fluorescence, 24 h; hits give low values; DMSO median 0, no signal -100;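 active = significant combined selectivity score with lowered wild-type GFP, culture density cut under 30%, mutant RFP and density less affected; inactive = any of these conditions unmet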; also: one replicate is shown; some compounds called inactive have numbers as strong as hits
Vif TR-FRET: inhibitors of Vif binding to APOBEC3G peptide, primary screen, biochemical, TR-FRET, GST-Vif 1-94, biotin-A3G peptide, dose response retest (AID 1117319). TR-FRET GST-Vif / biotin-A3G peptide binding; higher % means a stronger effect; test concentration not given here; strong numbers were not always called active. inhibition, %; hits with a dose series show IC50 in µM. 260,000 compounds, 0.57% hits;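 active = above the screen mean plus three standard deviations and confirmed in dose response; inconclusive = results disagree or hit not tested in dose response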;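 also: Vif residues 1-94 fused to GST binding biotinylated APOBEC3G peptide 110-148; 0% = full assay without inhibitor and 100% = GST in place of GST-Vif; retest series ran down from 100 µM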
Beta apoptosis: blocks beta cell apoptosis; protection from apoptosis, % (no concentration beside the values); INS-1E cytokine-induced death, ATP luminescence, 48 h; percent of positive-control rescue, neutral wells zero; 300,000 compounds, 0.8% hits; AID 435005;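 active = all replicates at 75% or more, or half of them and the mean; inconclusive = half reach 75% but not the mean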;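 also: 0% = cytokine-treated negative control wells and 100% = positive control rescue; higher means more ATP so stronger rescue from cytokine killing; wells of about 40 µL received 100 nL stock; the first replicate is given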
rRNA inh HTS OD600: further read-out of rRNA inh HTS, marked with its call; OD600 change, %; measured here: OD600 growth;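 optical density of the mix in the first replicate; 0 = DMSO median and -100 = no signal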
rRNA inh HTS RFP: further read-out of rRNA inh HTS, marked with its call; RFP signal change, %; measured here: RFP humanized mutant strains;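 first replicate; 0 = DMSO median and -100 = no signal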
Numbers without * were called inactive; ? = inconclusive; · = not tested or not shown.

1. CC(=O)N/C(=C\c1ccccc1)C(=O)OCC(=O)N1CCCCCC1
2. Cn1cncc1COC(=O)c1ccc(Cl)cc1
3. COC(=O)/C=C1\NC(=O)C(C)S1 (stereo not given)
4. CCCNc1nc(Nc2ccc(C)c(Cl)c2)c2cnn(C)c2n1
5. CCOc1ccc(CN2C(=O)c3ccccc3Sc3ccc(C(=O)NCCCN4CCOCC4)cc32)cc1
6. Cc1ccccc1N1CC(C(=O)N2CCCCCC2)CC1=O (stereo not given)
7. CC(=O)c1cc(NC(=O)c2ccc(C)cc2)c(=O)oc1C
8. O=C(COc1ccc2c(-c3ccccc3)cc(=O)oc2c1)NCC1CCC(C(=O)O)CC1 (stereo not given)
assay / compound | 1 | 2 | 3 | 4 | 5 | 6 | 7 | 8
T cruzi inh | -3 | -3 | -14 | 41 | -15 | 1 | -28 | -20
Calb FLC | -3 | -2 | -1 | -2 | 5 | -11 | 3 | -9
AF4-AF9 inh | -9.0 | -0.2 | -2.9 | -0.2 | 6.8 | -28 | -1.2 | -2.0
RanGTP-Impb inh | 4.5 | 0.7 | 4.4 | -3.0 | 3.1 | -7.7 | -1.7 | 2.7
A1 inh | -0.1 | 0.1 | 0.9 | 0.2 | 0.0 | -1.4 | 0.4 | 0.8
rRNA inh HTS | 10 | 8 | 13 | 2 | -24 | 16 | 16 | -12
rRNA inh HTS OD600 | 0 | 4 | 9 | -2 | -43 | 12 | 13 | -12
rRNA inh HTS RFP | -7.6 | -1.2 | -1.4 | -9.3 | 0.1 | -0.8 | 3.0 | -13
Vif TR-FRET | · | 8% | -8% | -15% | · | · | -2% | ·
Beta apoptosis | -3 | 3 | · | 32 | -4 | · | -7 | -5

9. CN(C)CCOc1ccccc1C(C)(C)C
10. Cc1nnc(NC(=O)Nc2cccc(Cl)c2)s1
11. Cc1nn(C(=O)c2cccnc2)c(C)c1C
12. COC(=O)c1cn(C(=O)OC)c2ccccc12
13. O=C(NC1CCCCC1)NC1CC2CCCC(C1)N2C1CCCC1 (stereo not given)
14. CC[C@@H](C)[C@H](NC(=O)CCc1c(C)c2cc3c4c(oc3c(C)c2oc1=O)CCCC4)C(=O)O
15. CCc1nnc(NC(=O)CN2CCN(CC)CC2)s1
16. Cc1ccc2nsnc2c1NC(=O)c1ccccc1[N+](=O)[O-]
assay / compound | 9 | 10 | 11 | 12 | 13 | 14 | 15 | 16
T cruzi inh | 3 | -5 | -16 | -5 | 2 | 1 | 4 | -6
Calb FLC | 43 | -9 | -1 | -5 | 3 | 21 | -14 | -19
AF4-AF9 inh | · | · | · | · | · | -2.1 | 3.5 | ·
RanGTP-Impb inh | 0.2 | -1.8 | -2.1 | 4.5 | 1.5 | 2.7 | 0.4 | 1.1
A1 inh | 1.7 | -4.4 | -0.9 | 1.3 | -0.1 | 0.4 | 0.0 | 0.8
rRNA inh HTS | · | · | · | · | · | -20 | 1 | ·
rRNA inh HTS OD600 | · | · | · | · | · | -24 | 8 | ·
rRNA inh HTS RFP | · | · | · | · | · | -6.8 | 0.0 | ·
Vif TR-FRET | 7% | 3% | 71% | 1% | 11% | -7% | · | 2%
Beta apoptosis | · | -10 | -2 | 2 | -4 | -6 | -4 | -3

17. CC(C)c1nn2c(=O)cc(CSc3ccccc3NC(=O)c3ccccc3F)nc2s1
18. COc1cc2c(cc1OC)CN(CC(=O)Nc1ccc(C#N)cc1)CC2
19. CN(C)CCCNC(=O)N1c2ccccc2Sc2ccccc21
20. CCCCn1c(=O)c(C(=O)OCC)c(O)c2ccccc21
21. O=C(NNCC(O)COc1ccccc1)c1ccccc1 (stereo not given)
22. COc1ccc(NC(=O)CCn2ccnc2)c(OC)c1
23. Cc1ccc(C)n1NC(=O)c1ccccc1Cl
24. CC(C)(C)c1ccc(/C=N/N2C(=O)CSC2=S)cc1
assay / compound | 17 | 18 | 19 | 20 | 21 | 22 | 23 | 24
T cruzi inh | -4 | -18 | -10 | 0 | -8 | -4 | 10 | -33
Calb FLC | 8 | -14 | 5 | 18 | 6 | -2 | -9 | -1
AF4-AF9 inh | -1.8 | · | 3.2 | · | -2.4 | 6.7 | · | -0.4
RanGTP-Impb inh | 7.6 | 7.5 | 1.3 | -0.3 | -2.9 | 0.3 | 1.4 | -2.8
A1 inh | -1.0 | 0.9 | 0.0 | 0.1 | 0.8 | 0.7 | 1.0 | -1.5
rRNA inh HTS | -27 | · | 6 | · | 9 | 5 | · | -6
rRNA inh HTS OD600 | -33 | · | 12 | · | 10 | 14 | · | -6
rRNA inh HTS RFP | -7.0 | · | 3.0 | · | 5.4 | -0.2 | · | 5.9
Vif TR-FRET | 12% | 4% | 0% | -1% | -2% | 1% | 19% | ·
Beta apoptosis | -2 | 7 | -1 | 2 | -3 | -1 | -1 | 3

25. Cc1ccc(Cl)cc1NC(=O)CN1C(=O)COc2ccc(S(=O)(=O)N3CCOCC3)cc21
26. Cc1ccc(Cn2c(=N)c(C(=O)NCC3CCCO3)cc3c(=O)n4ccccc4nc32)cc1 (stereo not given)
27. Cc1nc([N+](=O)[O-])cn1-c1ccc(N)cc1
28. O=C(CCNC(=O)c1ccc(Br)cc1)NCc1ccco1
29. O=C(Cn1cnc2cc([N+](=O)[O-])ccc2c1=O)NCc1ccccc1
30. CC1(C)c2[nH]c3ccccc3c2C[C@H]2C(=O)N(CCCO)CC(=O)N21
31. O=C1/C(=C/c2ccc([N+](=O)[O-])cc2)C=C(c2ccccc2)N1c1ccccc1
32. COc1cc(NC(=O)c2cccs2)c(OC)cc1NC(=O)Cc1ccccc1
assay / compound | 25 | 26 | 27 | 28 | 29 | 30 | 31 | 32
T cruzi inh | -6 | 24 | 42 | -7 | 46 | 17 | 17 | 1
Calb FLC | -1 | -3 | -10 | · | 7 | 0 | 16 | 3
AF4-AF9 inh | 2.1 | -2.9 | 3.4 | 8.5 | -1.5 | -3.7 | · | -0.4
RanGTP-Impb inh | 1.8 | 161* | -2.9 | -0.6 | 3.1 | -1.6 | -2.1 | 1.1
A1 inh | 0.3 | 1.3 | 1.4 | 0.2 | -0.6 | 1.7 | -0.7 | -0.7
rRNA inh HTS | 1 | 1 | 1 | 2 | 15 | 10 | · | -8
rRNA inh HTS OD600 | 8 | -3 | -2 | -2 | 3 | 10 | · | -12
rRNA inh HTS RFP | -1.4 | -1.5 | -0.9 | 0.1 | -3.4 | 2.0 | · | -0.3
Vif TR-FRET | · | · | · | 1% | 23% | -6% | 1% | ·
Beta apoptosis | 5 | 7 | 2 | -5 | -3 | 1 | 4 | -2

33. Cc1c(O)ccc2c(CC(=O)N[C@@H](Cc3ccc(O)cc3)C(=O)O)cc(=O)oc12
34. CC(C)(C)C(=O)O/N=C1/C(=O)N(c2ccccc2)c2ccccc21
35. COc1ccc(CNC(=O)CSCc2cnn(-c3ccccc3)c2-n2cccc2)cc1
36. COc1ccc(CNC(=O)CC(C)CC2=NS(=O)(=O)c3ccccc3N2)cc1 (stereo not given)
37. COc1ccc(-n2c(Cc3cc(=O)[nH]c(=O)[nH]3)nnc2SCc2ccccc2)cc1
38. Cc1ccc(C(=O)COC(=O)CCCC(=O)NC2CCCCC2)cc1[N+](=O)[O-]
39. Cc1ccccc1Nc1nc(Cl)c(C=O)s1
40. O=C(Nc1cc(Cl)ccc1N1CCCC1)C1=COCCO1
assay / compound | 33 | 34 | 35 | 36 | 37 | 38 | 39 | 40
T cruzi inh | -13 | -1 | 2 | -15 | -1 | -10 | -10 | ·
Calb FLC | -14 | -1 | 41 | -6 | 4 | 6 | 12 | ·
AF4-AF9 inh | -6.8 | · | · | 3.7 | · | · | -0.1 | 8.2
RanGTP-Impb inh | 52* | 3.1 | -2.8 | ? | -4.9 | 2.1 | -3.5 | ·
A1 inh | 0.3 | -0.5 | 1.9 | -0.2 | 0.1 | 0.5 | -0.2 | 0.8
rRNA inh HTS | -1 | · | · | -1 | · | · | 9 | 2
rRNA inh HTS OD600 | 9 | · | · | 4 | · | · | 7 | -3
rRNA inh HTS RFP | 0.8 | · | · | 2.5 | · | · | -0.4 | 4.7
Vif TR-FRET | 3% | 25% | 5% | · | 4% | 7% | · | -6%
Beta apoptosis | 1 | -9 | -6 | -1 | · | 0 | -3 | -5

41. CCCC(=O)Nc1cccc(S(=O)(=O)N(C)c2ccccc2)c1
42. CC(C)(C)NC(=O)C(c1ccc(F)cc1)N(Cc1ccco1)C(=O)CCC(=O)Nc1nccs1 (stereo not given)
43. O=[N+]([O-])c1ccc(S(=O)(=O)NCC(c2cccnc2)N2CCOCC2)cc1 (stereo not given)
44. C=CCn1c(N)c(C(=O)NCC2CCCO2)c2nc3ccccc3nc21 (stereo not given)
45. C/C(=C\C(=O)c1ccc(Br)cc1)NCc1ccc(C)cc1
46. O=C(O)C1CCCN1c1nc(-c2ccc(Cl)c(Cl)c2)cc(C(F)(F)F)n1 (stereo not given)
47. [O-][n+]1cccc(C(O)c2ccccc2)c1 (stereo not given)
48. CCCC(=O)n1nc(-c2ccco2)nc1N
assay / compound | 41 | 42 | 43 | 44 | 45 | 46 | 47 | 48
T cruzi inh | -13 | 8 | 8 | -28 | -5 | · | -4 | -10
Calb FLC | 1 | 0 | -6 | 0 | -28 | · | -10 | -5
AF4-AF9 inh | · | 1.6 | -1.0 | · | · | -1.9 | 0.8 | ·
RanGTP-Impb inh | 10 | -0.1 | -1.1 | 107* | -0.6 | · | 3.4 | 6.4
A1 inh | 0.5 | 0.2 | 0.2 | 0.4 | 0.5 | -0.7 | -0.8 | -0.1
rRNA inh HTS | · | 9 | 8 | · | · | 3 | 6 | ·
rRNA inh HTS OD600 | · | 5 | 7 | · | · | 12 | 9 | ·
rRNA inh HTS RFP | · | -1.0 | 3.7 | · | · | 5.8 | 0.0 | ·
Vif TR-FRET | 0% | 6% | · | 11% | -4% | 3% | · | 2%
Beta apoptosis | -5 | -2 | -3 | -9 | -5 | 0 | -4 | -7

Source: PubChem (several laboratories)

A portion of the library (hit frequency here may not be typical).
